Assay outcomes: PubChem BioAssay, National Center for Advancing Translational Sciences (NCATS)
Rango release inh: inhibition of RanGTP-driven Rango-importin beta dissociation. Biochemical FRET Rango-importin beta, RanGTP-induced dissociation. Potency, µM (titrated, usually from 46.1 µM), for the others: top-dose activity change, negative = inhibition. 0.071% of 340,000 active; active means falling FRET ratio curve, often poorly fitted, with flat reads before Ran was added; inconclusive means other falling curves, or compound fluorescence or quenching; inactive means flat or rising ratio curve;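 note: potency is the fitted concentration of half-maximal effect; % of control where 0% means no effect; nearly all actives have a fitted effect of over 45% in size; -100% = wells without RanGTP and RCC1; the record marks most hits as doubtful in a second field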
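Rango FRET biosensor (snurportin-1 IBB flanked by N-terminal EYFP and C-terminal CFP10) at 0.1 uM, with 0.25 uM importin beta in PBS, 1mM DTT, 0.02% Tween-20, 0.1% BSA. 0.6 uM Ran, 2mM GTP and 0.2 uM RCC1 were then added for 45 min at room temperature. Inhibition read as loss of FRET rise.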
GLA inh pH 4.5: blocks human alpha-galactosidase A at pH 4.5. P06280. purified enzyme, 4-MU-alpha-Gal fluorescence, pH 4.5. activity change, negative = inhibition, % at 105 µM. 230,000 tested, under 10 active; inconclusive = small, poorly fitted or top-dose-only inhibition, or a rising curve; inactive = flat fitted curve, though single readings scatter; no compound was filed as active;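 note: 0% = full activity with enzyme and -100% = basal without enzyme; dose as in the result columns while the protocol names 77 µM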
miR-21 FLuc: raises the signal of a miR-21 reporter | HeLa miR-21 FLuc reporter, luciferase, 48 h | Potency, µM (highest dose often 38.3 µM), for inactives: top-dose reporter change, positive = more light | 340,000 tested, under 10 active | AID 2288; active = well fitted rising curve with a large enough effect; inconclusive = small, poorly fitted or top-dose-only effect; inactive = no such curve, though single readings can be large or run the other way;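 note: % of control where 0% means no effect; miR-21 action dims this reporter so a rising signal means less miR-21 action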
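Compounds were titrated across several concentrations (up to approximately 40 uM) and incubated 48 hours with HeLa miR-21-FLuc reporter cells (miR-21 target sequence downstream of FLuc, endogenous miR-21). Readout was firefly luciferase luminescence after lytic detection reagent.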
Rango-impB inh: inhibitors of Rango-importin beta complex formation | Q14974 | Rango CFP/YFP FRET sensor + importin beta, 45 min | Potency, µM (titrated, usually from 92.2 µM), for inactives: at the top dose inhibition of complex formation | 0.031% of 340,000 active | AID 540263; active = rising FRET ratio curve, often small or poorly fitted; inconclusive = mostly compound fluorescence or quenching in the first reads; inactive = flat curves in all reads;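 note: potency is the fitted concentration of half-maximal effect; 0% = DMSO wells and 100% = buffer wells lacking importin beta; nearly all actives have a fitted effect of over 15% in size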
Target sequence (Q14974 whole entry, looked up): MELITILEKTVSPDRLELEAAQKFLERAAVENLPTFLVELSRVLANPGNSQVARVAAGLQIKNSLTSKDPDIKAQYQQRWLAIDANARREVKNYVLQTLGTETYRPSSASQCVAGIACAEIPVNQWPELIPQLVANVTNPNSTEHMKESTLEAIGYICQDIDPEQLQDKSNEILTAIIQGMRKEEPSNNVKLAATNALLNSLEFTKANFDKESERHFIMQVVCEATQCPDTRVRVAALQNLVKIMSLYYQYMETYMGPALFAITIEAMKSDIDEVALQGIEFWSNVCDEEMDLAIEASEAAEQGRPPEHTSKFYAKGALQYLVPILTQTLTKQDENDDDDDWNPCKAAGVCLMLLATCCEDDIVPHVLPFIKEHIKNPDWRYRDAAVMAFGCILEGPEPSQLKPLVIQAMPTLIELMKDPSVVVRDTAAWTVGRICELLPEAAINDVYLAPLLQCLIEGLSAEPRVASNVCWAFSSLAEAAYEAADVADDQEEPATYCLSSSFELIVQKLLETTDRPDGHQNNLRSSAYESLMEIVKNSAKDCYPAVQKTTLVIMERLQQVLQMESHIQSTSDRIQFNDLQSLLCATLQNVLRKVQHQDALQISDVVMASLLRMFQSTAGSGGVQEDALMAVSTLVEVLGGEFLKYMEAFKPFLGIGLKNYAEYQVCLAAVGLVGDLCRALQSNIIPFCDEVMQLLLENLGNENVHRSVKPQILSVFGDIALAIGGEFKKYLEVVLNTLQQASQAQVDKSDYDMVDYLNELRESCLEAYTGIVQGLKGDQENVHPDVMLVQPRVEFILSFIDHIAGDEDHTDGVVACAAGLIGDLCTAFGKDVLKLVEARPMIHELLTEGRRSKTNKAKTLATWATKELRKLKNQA
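Inhibition scored from the CFP 486 nm/YFP 530 nm FRET ratio 45 min after adding 0.125 microM importin beta to 50 nM Rango biosensor preincubated 5 min with compound (room temperature, PBS with DTT, Tween-20, BSA). No-importin wells as positive control.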
Starred values were filed as active, the others as inactive; ? = inconclusive; · = no result given; & = joins results of further samples; [ ] = another dose, or the depositor's remark. Only part of the results is shown; count on the stated rates, not on these rows.

Rango release inh	GLA inh pH 4.5	miR-21 FLuc	Rango-impB inh	Compound
4%	-6	-5%	-5.1%	Cc1nc(Nc2ccc(S(=O)(=O)N3CCCCC3C)cc2)c2nnn(Cc3ccccc3)c2n1 (stereo not given)
0%	·	·	0.9%	O=C(CSc1ccc2ccccc2n1)NC1CC1
-1%	0	-33%	-3.7%	CN(C)c1ccc(NC(=O)Nc2cccc3ccccc23)cc1
17%	1[21.1 µM]	0%&6%	0.6%	COc1ccc(S(=O)(=O)c2nnn(-c3cccc(Cl)c3)c2N)cc1
0%	·	-48%	-3.8%	CC(C)(C)CC(=O)Nc1ccc(-c2cn3cccnc3n2)cc1
1%	·	-28%	-0.1%	CCOc1ccc(N(CC(=O)Nc2cc(C)cc(C)c2)S(C)(=O)=O)cc1
5%	-4	-6%	-3.2%	COC(=O)c1nc2n(n1)C(c1ccc([N+](=O)[O-])cc1)C(C(=O)Nc1ccc(Cl)cc1)=C(C)N2 (stereo not given)
-3%	8	-28%	-0.3%	Cc1nc2nc(COc3ccccc3)nn2c(C)c1Cl

Later entries.
Rango release inh	GLA inh pH 4.5	miR-21 FLuc	Rango-impB inh	Compound
-5%	·	·	-1.6%	OCC[C@H]1C[C@@H](O)[C@H](O)[C@@]2(Cc3ccccc3CO2)O1
17%	-1	-4%	-0.4%	Cc1ccc(-c2nn3c(C)nnc3s2)cc1NC(=O)c1ccc(Br)o1
4%	-11	-6%	2.2%	Cn1cnc([N+](=O)[O-])c1Nc1cccc(O)c1
-13%	0	-3%	-1.1%	COc1cc(C)ccc1OCCCON1C(=O)CCC1=O
-4%	-10	-5%	-2.4%	Cc1cccc(C)c1OCc1n[nH]c(=S)n1-c1ccccc1
-9%	-1	0%	-3.5%	COC(=O)c1cc2oc(C)cc2n1CC(=O)N1CCCc2ccccc21
0%	·	-58%	-1.4%	Cc1[nH]c2ccc(C(=O)NC3CCC(C)CC3)cc2c1C (stereo not given)
-10%	2	-6%	-0.2%	Cc1cc(N2CC(C)OC(C)C2)nc2ccccc12 (stereo not given)

Grouped by structure: the compounds so far with sulfur.
Rango release inh	GLA inh pH 4.5	miR-21 FLuc	Rango-impB inh	Compound
4%	-6	-5%	-5.1%	Cc1nc(Nc2ccc(S(=O)(=O)N3CCCCC3C)cc2)c2nnn(Cc3ccccc3)c2n1 (stereo not given)
0%	·	·	0.9%	O=C(CSc1ccc2ccccc2n1)NC1CC1
17%	1[21.1 µM]	0%&6%	0.6%	COc1ccc(S(=O)(=O)c2nnn(-c3cccc(Cl)c3)c2N)cc1
1%	·	-28%	-0.1%	CCOc1ccc(N(CC(=O)Nc2cc(C)cc(C)c2)S(C)(=O)=O)cc1
17%	-1	-4%	-0.4%	Cc1ccc(-c2nn3c(C)nnc3s2)cc1NC(=O)c1ccc(Br)o1
-4%	-10	-5%	-2.4%	Cc1cccc(C)c1OCc1n[nH]c(=S)n1-c1ccccc1

The list continues.
Rango release inh	GLA inh pH 4.5	miR-21 FLuc	Rango-impB inh	Compound
1%	-2	-4%	-0.1%	C(=N\c1nccs1)/Nc1nccs1
-28%	-5	0%	-5.8%	Cc1ccc(-c2nc(C3CCCN(S(=O)(=O)c4ccc(C(C)(C)C)cc4)C3)no2)cc1 (stereo not given)
8%	·	·	1.8%	C=C1CCN([C@@H](CC(C)C)C(=O)NCc2ccco2)S(=O)(=O)c2ccccc21
4%	0	?	1.7%	COc1cc(CN2CCc3ccccc3C2)ccc1O
5%	·	·	4.5%	CCOc1ccc(CCNC(=O)COC(=O)/C=C/c2cccc(OC)c2)cc1OCC
-14%	-2&-9	13%	-2.0%	Cc1cc(C(=O)N[C@H](c2ccccc2)[C@@]2(C)C[C@@H]2[C@@H](C)C(=O)Nc2ccc3ccccc3c2)no1
-11%	-5	1%	0.2%	O=C(NC1CCCCC1)C1c2ccccc2C(=O)N1Cc1ccc2c(c1)OCO2 (stereo not given)
47%	·	·	0.3%	CC[C@H](C)[C@H]1O[C@]2(CC[C@@H]1C)C[C@@H]1C[C@@H](CC=C(C)[C@@H](O[C@H]3C[C@H](OC)[C@@H](O[C@H]4C[C@H](OC)[C@@H](O)[C@H](C)O4)[C@H](C)O3)[C@@H](C)C=CC=C3CO[C@@H]4[C@H](O)C(C)=C[C@@H](C(=O)O1)[C@]34O)O2

Three structures out of the list, ordered by SMILES length, highest first.
Rango release inh	GLA inh pH 4.5	miR-21 FLuc	Rango-impB inh	Compound
8%	·	·	1.8%	C=C1CCN([C@@H](CC(C)C)C(=O)NCc2ccco2)S(=O)(=O)c2ccccc21
-11%	-5	1%	0.2%	O=C(NC1CCCCC1)C1c2ccccc2C(=O)N1Cc1ccc2c(c1)OCO2 (stereo not given)
4%	0	?	1.7%	COc1cc(CN2CCc3ccccc3C2)ccc1O

Carrying on.
Rango release inh	GLA inh pH 4.5	miR-21 FLuc	Rango-impB inh	Compound
21%	0	-24%	0.0%	Cc1n[nH]c(C)c1SCC(=O)Nc1ccc(F)cc1
-14%	·	·	-2.4%	COc1cc2cnc(CCO[C@H]3CCCCO3)cc2cc1OC
0%	3	0%	-0.8%	CCOC(=O)/C(C#N)=C/c1ccc(OC)c(OC)c1
2%	-1	-7%	1.3%	Nc1nc(Nc2ccccc2)nc2ccccc12
14%	4	-3%	0.2%	COc1ccc(N2CC(C(=O)NC3=NCCS3)CC2=O)cc1 (stereo not given)
-6%	·	5%	-0.9%	COc1ccc2c(C=O)cn(C)c2c1
-1%	·	-8%	-1.5%	O=C(CC1OCC2CCCN2C1=O)Nc1ccc([N+](=O)[O-])cc1 (stereo not given)
-14%	·	-2%	3.5%	CCOc1ccc(NC(=O)CCC(=O)c2ccc(Br)cc2)cc1

The listing continues.
Rango release inh	GLA inh pH 4.5	miR-21 FLuc	Rango-impB inh	Compound
-8%	·	0%	-1.8%	COc1cc(CNC(=O)C2CCCC2)cc(OC)c1OC
2%	·	2%	0.6%	Cc1ccc(C(=O)NC2CCCN(c3ccc(C(F)(F)F)cn3)C2)cn1 (stereo not given)
12%	·	-1%	-0.5%	COC(=O)C1CN(S(=O)(=O)c2ccc(NC(C)=O)cc2)CCS1 (stereo not given)
10%	3	-5%	1.1%	CCN(C(=O)Cn1c(=O)oc2ccccc21)c1cccc(C(F)(F)F)c1
?	-2	-44%	?	CCOc1ccc2nc3sc(C(=O)N4CCN(C)CC4)c(N)c3cc2c1
4%	·	-8%	4.6%	CCOc1ccc(N(C(=O)CNC(=O)c2ccco2)C(C(=O)NC2CCCC2)c2cccnc2)cc1 (stereo not given)
2%	-2	-2%	-3.2%	CCCCNC(=O)c1ccccc1NC(=O)CCC
1%	·	·	-4.1%	N#CC1(NC(=O)COc2ccccc2[N+](=O)[O-])CCCCC1

Next part.
Rango release inh	GLA inh pH 4.5	miR-21 FLuc	Rango-impB inh	Compound
12%	·	·	8.8%	Cc1ccc(C(=O)NCc2ccc(Cl)cc2)cc1S(=O)(=O)N1CCCCC1
-10%	-4	-4%	-1.6%	Clc1ccc(Cc2ccccc2)nn1
-2%	·	-1%	-0.3%	O=C(CN1C(=O)COc2ccccc21)NNC(=O)Nc1ccccc1F
-3%	·	0%	5.5%	O=C(NNC1=NS(=O)(=O)c2ccccc21)c1cccc([N+](=O)[O-])c1
0%	·	·	1.0%	CC(=NNC(=O)c1ccncc1)c1ccc(Cl)c(Cl)c1
3%	-7	1%	5.1%	COc1cc(CCCN2C(=O)C(=O)NC[C@@H]2c2ccccc2)cc(OC)c1OC
-10%	-5	-3%	4.9%	Cc1cc(C)nc(N2CCCC(C(=O)NCC(c3ccccc3)c3ccccc3)C2)n1 (stereo not given)
?	·	-1%	-0.2%	Cc1cc(Br)c(NC(=O)Cn2c([N+](=O)[O-])cnc2C)cc1C

Next part.
Rango release inh	GLA inh pH 4.5	miR-21 FLuc	Rango-impB inh	Compound
2%	3	-8%	-2.6%	C=CCn1c(C)c(C(C)=O)c(N2CCOCC2)nc1=S
-2%	0	3%	-1.4%	Cc1nc(N2CCCCC2)c2ccsc2n1
4%	4	-3%	0.1%	O=C(CSc1nnc(SCC(=O)NCc2ccc3c(c2)OCO3)s1)NCc1ccc2c(c1)OCO2
5%	-5[21.1 µM]	-9%	0.7%	CCOC(=O)c1ccc(N=C2SC(C(=O)Nc3ccc(C(=O)O)cc3)CC(=O)N2Cc2cccs2)cc1 (stereo not given)
-3%	-7	-1%	?	Cc1nc2ccccc2nc1CN1CCN(Cc2ccc(F)c(F)c2)C(CCO)C1 (stereo not given)
0%	·	-3%	0.0%	O=C(COC(=O)CSc1ccc([N+](=O)[O-])cc1)NCCCc1ccccc1
-3%	·	-1%	-0.1%	CCC1(C)Cc2ccccc2-c2nc(SCC(N)=O)[nH]c(=O)c21 (stereo not given)
14%	1	-48%	-4.1%	COCCCNC(=O)Cn1nnc(-c2ccc(NC(=O)c3ccccc3F)cc2)n1

Next section:
Rango release inh	GLA inh pH 4.5	miR-21 FLuc	Rango-impB inh	Compound
12%	7	-1%	-1.4%	CCCC(=O)Nc1cc2c(cc1C(C)=O)OCCO2
8%	·	-14%	1.1%	Cc1cccc(CS(=O)(=O)c2cn(CC(=O)N3CCOCC3)c3ccccc23)c1
?	0	?	?	COc1ccc(C2C(C(=O)c3ccccc3)N3c4ccccc4C=CC3C2[N+](=O)[O-])cc1 (stereo not given)
2%	-13	-1%	1.8%	CC(C)CCNC(=O)CCCOc1ccccc1
0%	·	·	-2.1%	Cc1ccc(S(=O)(=O)N2CCN(C(=O)COC(=O)c3cc([N+](=O)[O-])ccc3NCCO)CC2)c(C)c1
-3%	·	·	0.9%	Cc1c(NC(=O)c2cccc(NC(=O)COc3ccc(C#N)cc3)c2)c(=O)n(-c2ccccc2)n1C
3%	3	-32%	-0.3%	COc1cc(C)nc(NCc2ccccc2)n1
5%	4	-20%	7.1%	COc1ccc(C)cc1NC(=O)c1ccc(OC(F)F)cc1

(next part)
Rango release inh	GLA inh pH 4.5	miR-21 FLuc	Rango-impB inh	Compound
-10%	·	0%	-0.5%	Cc1ccc2nc(SCC(=O)NCc3ccc(S(N)(=O)=O)cc3)[nH]c2c1
-6%	·	-1%	-1.2%	CN(C)CCN1C(=O)C2C(C(=O)Nc3cc(Cl)cc(Cl)c3)C3C=CC2(O3)C1C(=O)NC1CCCCC1 (stereo not given)
12%	·	·	2.0%	CC1CCC(CC(=O)O)(C(=O)O)CC1 (stereo not given)
1%	-18	-9%	1.0%	Cc1nc2nc(C)n(-c3ccccc3)c2s1
-2%	-4	-12%	-4.9%	COc1cccc(OC)c1C(=O)Nc1ccc2c3c(cccc13)CC2
?	-13	-2%	?	O=C(O)CN1C(=O)/C(=C\c2cn(CC(=O)N3CCOCC3)c3ccccc23)SC1=S
-11%	2	3%	1.9%	Cc1ccc(/C=N\NC(=O)Cc2cccn2C)o1
1%	·	-3%	-4.4%	O=C(N/N=C/c1ccc(Cl)cc1Cl)c1ccncc1

Going on with the list.
Rango release inh	GLA inh pH 4.5	miR-21 FLuc	Rango-impB inh	Compound
10%	·	·	3.3%	Cc1ccccc1NC(=O)CSc1nnc2ccc(-c3ccccn3)nn12
3%	0	-1%	0.2%	Cc1ccc(-c2nc(CS(=O)CC(=O)N3CCN(c4ncccn4)CC3)c(C)o2)cc1 (stereo not given)
-10%	·	·	2.4%	CCOC(=O)c1c(C)[nH]c(C)c1C(=O)COC(=O)c1cccs1
-11%	·	·	-0.8%	CC(C)(C)S(=O)(=O)N1Cc2cc(CO)cc(CCO)c2[C@H]1CCO
-15%	·	·	1.0%	O=C1C=C(c2ccc(F)cc2OCc2ccccc2)C[C@@H](c2ccc(Cl)cc2)C1
10%	-3	-16%	-0.3%	O=C(c1cccs1)N1CCN(Cc2ccccc2[N+](=O)[O-])CC1
-1%	4	-10%	-3.6%	O=C(CSc1ccc(-c2nc3ccccc3[nH]2)cn1)Nc1ccc(S(=O)(=O)N2CCCC2)cc1
-1%	-15	3%	0.5%	O=C(/C=C/c1ccco1)N/C(=C\c1ccccc1)C(=O)NCCc1nc2ccccc2[nH]1
-9%	-11	?	1.2%	CCOC(=O)c1c(CSC(=N)N)n(-c2ccc(Br)cc2)c2cc(Br)c(OC(C)=O)cc12
0%	·	·	7.9%	O=C1CC(c2ccccc2)C(=O)N2C(=O)CC(c3ccccc3)C(=O)N12 (stereo not given)
